# Compound activity as filed in PubChem BioAssay.
# Mtb hypoxia rep = PubChem AID 1159583; fluorescence inhibition, % (test concentration not listed); actives 0.1% (n = 300,000); M. tuberculosis hypoxia-regulated fluorescent reporter, fluorescence;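 active = 35 to 45% if threefold the growth effect, above 45% if 1.5-fold the growth effect; inactive = the rest, general growth blockers included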;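 note: wells of about 50 µL received 100 nL stock; 0% = vehicle wells and 100% = reference inhibitor wells; whole bacteria with a GFP reporter of the hypoxia response; strong numbers were not always called active; many hits fall short of the cut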
# PrP UTR inh = inhibition of PrP 5' UTR reporter expression; cell-based PrP 5' UTR mRNA reporter, plate reader; inhibition, % (concentration not given with the values); actives 0.35% (n = 340,000); AID 488862, 2010;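 active = every replicate at 50% or more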;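 note: 0 = median of the neutral control wells; tested in H4 reporter cells; numbers are from one replicate; inactives centre near -14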
# Bead autofluor = flagged as autofluorescent in microsphere protease counterscreen. fluorescence intensity (test concentration not listed). compound autofluorescence counterscreen, microsphere flow cytometry; hits give high values. actives 3.1% (n = 360,000);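 active = at least 3 SD above the mean of all compounds, about 16000 in these data; inconclusive = too few beads counted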;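 note: 100 nL of 1 mM stock went into each well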
# RN4220 kill = growth inhibition of S. aureus RN4220, primary screen, OD600 | 16 h | inhibition, % (no concentration beside the values) | actives 0.33% (n = 330,000);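 active = z-score of -3 or lower and OD600 up to 0.18 on both plates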;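 note: plate controls were untreated cells for no effect and reference antibiotic for full effect; stock transfer was 100 nL into about 80 µL; one replicate is shown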
# ugtP null kill = growth inhibition of ugtP-null S. aureus, primary screen, RN4220 ugtP deletion, OD600; 16 h; some inactives read as strong as hits; growth inhibition, % (concentration not given with the values); AID 1259309, 2017; actives 0.54% (n = 330,000);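 active = z-score under -3 and OD600 up to 0.15 on both plates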;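 note: plate controls were untreated wells for no effect and antibiotic for full effect; wells of about 80 µL received 100 nL stock; the first replicate is given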
# BJeLR viability = MLPCN primary cell-based screen for lethality selective to Ras in HRASV12 cells | BJeLR (HRASV12) viability, CellTiter-Glo ATP luminescence, 48 h; reference of the scale not given here | inhibition, % (test concentration not listed) | actives 0.17% (n = 300,000) | AID 1554, 2009;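 active = replicate mean above 50%; inconclusive = above 50% but judged a plate artefact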;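 note: 50 nL library stock added to about 25 µL; numbers are from one replicate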
# Mtb hypoxia rep growth = also measured in Mtb hypoxia rep; calls as there; growth inhibition, %; measured here: M. tuberculosis growth (absorbance);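 0% = vehicle and 100% = reference antibiotic; read after six days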
# Starred values were filed as active, the others as inactive; ? = inconclusive; . = no result given; & = joins results of further samples.
# A first look (16 entries):
SMILES,Mtb hypoxia rep,Mtb hypoxia rep growth,PrP UTR inh,Bead autofluor,RN4220 kill,ugtP null kill,BJeLR viability
N#CC1=C(N)C(C#N)(C#N)[C@H](c2c(F)cccc2F)[C@H]2CC3(CC=C12)OCCO3,-2,-4,-11,7949,4.7,-4,-2
CC1=C(C(=O)Nc2cccnc2)C(c2ccc(C(C)C)cc2)n2ncnc2N1 (stereo not drawn),5,15,-9,5244,2.0,3,5
N#CCC(=O)Nc1ccc(C(=O)OCC(=O)NCCCc2ccccc2)cc1,-10,-2,4,2890,-0.4,-1,2
Cc1cccc(C)c1NC(=O)C(c1ccc([N+](=O)[O-])cc1)N1CCCCC1 (stereo not drawn),5,-1,-23,6512,0.3,0,1
CCN(CC)CCN=C(C)c1c(O)n(-c2ccccc2OC)c(=O)[nH]c1=O,8,5,-1,2457,-7.9,2,-7
C#CCn1c(C)cc(C)c(S(=O)(=O)c2ccccc2)c1=O,-4,1,-64,3416,2.9,4,0
CCSc1ccc(C2C3C(=O)N(C)C(=O)C3[C@]3(C(=O)OC)CCCCN23)cc1OC (stereo partly drawn),1&18,-3&8,.,.,0.3&11,-3&4,.
CS(=O)(=O)N1CCc2cc(C(=O)Nc3ccc(COCC(F)(F)F)cc3)ccc21,-1,14,-20,?,5.0,6,12
CCOC(=O)N1CCN(S(=O)(=O)N2CCCC(C(=O)NCCc3ccc(Cl)cc3)C2)CC1 (stereo not drawn),-2,-2,-2,4388,2.6,2,3
Cc1ccc(N2CCN(N=Cc3ccccc3)CC2)cc1,0,-2,.,.,8.5,9,.
O=C(O)CCC(=O)NN1C(=O)c2ccccc2NC1c1ccco1 (stereo not drawn),16,13,-34,4637,4.7,5,3
C=CCOC(=O)C1=C(C)Nc2ncnn2C1c1cc(Br)ccc1F (stereo not drawn),-14,7,-6,9480,0.8,-20,3
Cc1nc(N2CCN(c3ccccc3)CC2)nc2c1C(=O)CC(C)C2 (stereo not drawn),3,5,-14,21996*,12,1,9
O=C(CSc1ccc2nnc(-c3ccccn3)n2n1)Nc1ccccc1C(F)(F)F,1,-10,-26,4008,0.9,3,-5
CCN(C(=O)CSc1nc2ccc(C)cc2[nH]1)C1CCS(=O)(=O)C1 (stereo not drawn),8,14,-18,3932,2.6,3,.
CC1(C(=O)O)Oc2cccnc2NC1=O (stereo not drawn),11,1,-9,4307,4.1,9,-2

# The whole of this part, from the first entry:
SMILES,Mtb hypoxia rep,Mtb hypoxia rep growth,PrP UTR inh,Bead autofluor,RN4220 kill,ugtP null kill,BJeLR viability
N#CC1=C(N)C(C#N)(C#N)[C@H](c2c(F)cccc2F)[C@H]2CC3(CC=C12)OCCO3,-2,-4,-11,7949,4.7,-4,-2
CC1=C(C(=O)Nc2cccnc2)C(c2ccc(C(C)C)cc2)n2ncnc2N1 (stereo not drawn),5,15,-9,5244,2.0,3,5
N#CCC(=O)Nc1ccc(C(=O)OCC(=O)NCCCc2ccccc2)cc1,-10,-2,4,2890,-0.4,-1,2
Cc1cccc(C)c1NC(=O)C(c1ccc([N+](=O)[O-])cc1)N1CCCCC1 (stereo not drawn),5,-1,-23,6512,0.3,0,1
CCN(CC)CCN=C(C)c1c(O)n(-c2ccccc2OC)c(=O)[nH]c1=O,8,5,-1,2457,-7.9,2,-7
C#CCn1c(C)cc(C)c(S(=O)(=O)c2ccccc2)c1=O,-4,1,-64,3416,2.9,4,0
CCSc1ccc(C2C3C(=O)N(C)C(=O)C3[C@]3(C(=O)OC)CCCCN23)cc1OC (stereo partly drawn),1&18,-3&8,.,.,0.3&11,-3&4,.
CS(=O)(=O)N1CCc2cc(C(=O)Nc3ccc(COCC(F)(F)F)cc3)ccc21,-1,14,-20,?,5.0,6,12
CCOC(=O)N1CCN(S(=O)(=O)N2CCCC(C(=O)NCCc3ccc(Cl)cc3)C2)CC1 (stereo not drawn),-2,-2,-2,4388,2.6,2,3
Cc1ccc(N2CCN(N=Cc3ccccc3)CC2)cc1,0,-2,.,.,8.5,9,.
O=C(O)CCC(=O)NN1C(=O)c2ccccc2NC1c1ccco1 (stereo not drawn),16,13,-34,4637,4.7,5,3
C=CCOC(=O)C1=C(C)Nc2ncnn2C1c1cc(Br)ccc1F (stereo not drawn),-14,7,-6,9480,0.8,-20,3
Cc1nc(N2CCN(c3ccccc3)CC2)nc2c1C(=O)CC(C)C2 (stereo not drawn),3,5,-14,21996*,12,1,9
O=C(CSc1ccc2nnc(-c3ccccn3)n2n1)Nc1ccccc1C(F)(F)F,1,-10,-26,4008,0.9,3,-5
CCN(C(=O)CSc1nc2ccc(C)cc2[nH]1)C1CCS(=O)(=O)C1 (stereo not drawn),8,14,-18,3932,2.6,3,.
CC1(C(=O)O)Oc2cccnc2NC1=O (stereo not drawn),11,1,-9,4307,4.1,9,-2
CN1CCN(CC(O)COc2ccc(C(=O)O)cc2)CC1 (stereo not drawn),1,7,-28,3620,3.1,13,-5
COc1cc(C2=NOC(C(=O)NCc3cccs3)C2)cc(OC)c1OC (stereo not drawn),11,5,-11,4014,0.7,4,20
Cc1ccc(S(=O)(=O)N2CCC[C@H]2C(=O)NC2CCCCC2)cc1,5,5,-16,3670,2.7,2,.
N/C(=N\OC(=O)C12CC3CC(CC(C3)C1)C2)c1ccccc1,1,1,-41,17662*,3.3,-4,-12
Cc1cccc(NC(=S)N(CCN(C)C)Cc2cc3cc(C)ccc3[nH]c2=O)c1,9,7,-16,4817,-4.9,2,3
C/C=C(\C)c1nnc(NC(=O)c2ccco2)s1,7,3,-62,4132,1.1,-5,5
CC(=O)[C@@H]1[C@@H](C)N(Cc2ccccc2)C(=O)N[C@H]1c1cccc(C(F)(F)F)c1,.,.,-9,3733,.,.,3
CN(Cc1cccs1)C(=O)Cc1c[nH]c2ccccc12,.,.,-22,2162,4.3,-3,9
O=C(COc1coc(CN2CCN(c3ccccc3F)CC2)cc1=O)NC1CCCC1,6,8,-15,4980,3.8,4,1
Nc1nonc1-c1nc2ccccc2n1CC(=O)NN=Cc1ccc(-c2cccc(C(=O)O)c2)o1,9,6,.,.,5.4,6,.
C/C(N)=C(/C#N)C(=O)COC(=O)[C@@H](NC(=O)c1ccccc1Cl)C(C)C,8,16,-27,4422,9.2,7,-3
CN(CC(=O)Nc1ccc2c(c1)CCC2)CC(=O)Nc1ccccc1Br,0,10,-15,4877,2.3,-2,10
CCCn1c(SCC(=O)c2cc(C)n(C3CC3)c2C)n[nH]c1=O,-2,6,-23,4169,-7.8,-5,.
CCOC(=O)C(=O)NNc1ccccc1OC,14,5,-18,3486,3.5,3,-4
CCc1ccc(OCCOCC(O)CNC(C)(C)C)cc1 (stereo not drawn),9,11,-28,2214,1.6,5,6
CC1CCCCN1C(=O)c1ccccc1NC(=O)c1ccco1 (stereo not drawn),.,.,-14,3113,4.8,4,-4
Cc1ccc(CSCCNC(=O)CN(c2cccc([N+](=O)[O-])c2)S(C)(=O)=O)cc1,10,-1,-16,4282,3.3,4,2
Cc1nc2ccccc2c(=O)n1NC(=O)c1ccccc1Br,5,-4,10,2966,26,-1,-2
O=C(COC(=O)CCCc1nc2ccccc2s1)NC(=O)NCc1ccco1,13,2,-12,3655,12,5,16
Cc1ccc(NC(=S)NCc2ccc(Cl)cc2)c(OC(F)F)c1,10,2,-17,5946,-5.1,-14,-5
Cc1ccc(CNC(=O)CON=Cc2ccc3c(c2)OCO3)cc1,-2,-1,.,.,-1.1,3,.
O=Cc1ccnc(-c2ccc(OC(=O)c3ccco3)cc2)n1,1,1,-1,4317,12,18,-7
O=S(=O)(NCCSCc1c(Cl)cccc1Cl)c1ccc2c(c1)OCCO2,-5,7,-18,9972,5.0,23,-4
CN(CCc1ccccn1)C(=O)CCC1CCCN(C(=O)c2ccc3c(c2)OCCO3)C1 (stereo not drawn),13,1,-14,2889,21,-63,-3
CCC(=O)C1CCCN(C(=O)CCc2nnc(-c3ccc4c(c3)OCO4)o2)C1 (stereo not drawn),2,-1,-30,4144,-5.0,-3,4
Cc1ccc(NC(=O)c2ccco2)nc1,5,7,-69,5708,3.6,3,.
N=C(N)SCc1ccccn1,.,.,-21,2484,.,.,11
Clc1ccc(C[n+]2c(-c3ccccc3)cc(-c3ccccc3)cc2-c2ccccc2)cc1,.,.,-19,4228,100*,100*,5
CCOc1cc(CNCc2cccnc2)cc(Br)c1OCC(N)=O,10,-3,6,3014,3.0,3,-2
COc1ccccc1/C=C/C(=O)NC1CC2CCC1C2 (stereo not drawn),10,13,-15,4195,3.9,4,0
CCCn1cc(S(=O)(=O)c2ccc(Cl)cc2)c(=O)c2cc(OC)ccc21,-3,-3,-18,5854,3.2,3,3
COc1ccc(S(=O)(=O)N(C)CC(=O)NCC2CCCO2)cc1OC (stereo not drawn),3,5,-11,3127,-2.8,4,4

# The last two compounds of the part before come first, to join the parts.
SMILES,Mtb hypoxia rep,Mtb hypoxia rep growth,PrP UTR inh,Bead autofluor,RN4220 kill,ugtP null kill,BJeLR viability
CCCn1cc(S(=O)(=O)c2ccc(Cl)cc2)c(=O)c2cc(OC)ccc21,-3,-3,-18,5854,3.2,3,3
COc1ccc(S(=O)(=O)N(C)CC(=O)NCC2CCCO2)cc1OC (stereo not drawn),3,5,-11,3127,-2.8,4,4
CCn1nc(C)c(/C=N/NC(=O)Cn2nnc(N)n2)c1C,.,.,-13,2953,.,.,5
Cc1ccc(S(=O)(=O)c2c(COC(=O)c3ccc(Cl)cc3)c(-c3ccccc3)nn2C)cc1,4,-1,-11,3416,5.4,19,-4
C=CCNCCOc1ccc(C(C)(C)c2ccccc2)cc1,5,1,-15,2397,6.4,37,10
NC(=O)c1ccc(Nc2ccc3c(c2)CCC3)c([N+](=O)[O-])c1,-4,2,-14,3189,-1.8,-7,4
COc1cc(CCC(=O)N2CCN(S(=O)(=O)c3ccc(C)c(C)c3)CC2)cc(OC)c1OC,-12,-1,3,9640,5.0,3,.
CCN(CC)CCCNC(=O)c1cn(CC)c2cc(N3CCN(C(=O)c4ccco4)CC3)c(F)cc2c1=O,3,10,-3,6095,33,41,-6
Cc1nc(-c2ccc(S(=O)(=O)N3CCCN(CCc4ccccc4)CC3)s2)cs1,.,.,-14,?,.,.,2
CN(C(=O)OC(C)(C)C)[C@H](Cc1ccccc1)C(=O)N[C@H]1CCCCNC1=O,5,8,-25,3349,4.4,13,.
O=C(/C=C/c1nc2ccccc2s1)N1CCCCCC1,14,2,-29,4475,1.4,-2,1
CN(C)S(=O)(=O)c1cccc(NC(=O)CSc2nc3c(cc2C#N)C(=O)CC(C)(C)C3)c1,3,5,-13,2007,2.0,4,13
O=C(Nc1cccnc1Cl)c1ccc2c(Cl)c3c(nc2c1)CCC3,-2,-10,-61,2016,5.3,-17,3
C=CC[N+]1(CC=C)CCOCC1,20,1,0,3829,2.2,9,-2
CCCCC(=O)Oc1ccccc1C1SCc2cc(C)c(C)cc2CS1,.,.,-8,4297,-2.4,-5,9
Cc1ccc(C(=O)Nc2nc3ccc(S(C)(=O)=O)cc3s2)s1,8,16,-28,21772*,4.6,-4,-4
CCNc1ccc(Br)cc(C(=O)/C=C/c2ccc(Cl)cc2)c1=O,11,1,-24,7902,0.7,5,-9
COc1ccc(OC)c(N2CC(O)(c3cccs3)[N+]3=C2SCCC3)c1 (stereo not drawn),-6,-2,-11,3655,2.4,-2,8
CN(CC(=O)Nc1ccc(Cl)c(C(F)(F)F)c1)C(=O)CCC(=O)c1ccccc1,22,13,-10,3710,1.6,-2,.
CCOc1ccc(C2NC(=O)Cc3cc(OC)c(OC)cc32)cc1 (stereo not drawn),4,-3,15,3253,-0.5,0,-1
CC1CCc2sc(C(=O)NN=Cc3ccc([N+](=O)[O-])cc3)cc2C1 (stereo not drawn),-7,-10,.,.,0.0,0,.
CCCCC1=CC2=C(c3ccco3)C(=O)C(C)(OC(=O)c3ccc(OC)cc3)C(=O)C2=CN1CC1CC1 (stereo not drawn),2,3,-3,2682,2.4,-1,6
O=C(Cn1nnc2ccccc21)c1ccc(Br)cc1,-6,12,-15,5071,-0.7,-11,13
CCN(C(=O)CSc1nc(C2CC2)n(-c2ccccc2)n1)C1CCS(=O)(=O)C1 (stereo not drawn),-5,-1,-2,6165,-0.9,-1,.
COc1ccccc1CN1CCN(Cc2ccc3ccccc3c2)CC1,10,4,-10,4170,2.3,21,0
Cn1c(=O)c2c(ncn2CC(=O)Nc2ccccc2)n(C)c1=O,6,15,-7,3256,0.6,-4,-8
N=c1c2ccccc2nc2n1CCCCCCCCCCC2,20,18,-3,3904,-7.3,-15,4
